TSHR ag: qHTS Assay for Agonists of the Thyroid Stimulating Hormone Receptor; Potency, µM (highest dose often 57.1 µM), for the others: at the top dose activation, most hits filed as activators; 0.48% of 73,000 active; HEK293-CNG-TSHR cells (CNG channel as cAMP sensor), membrane potential dye, cAMP; AID 926, 2007; Thyrotropin receptor (Homo sapiens), P16473; active = well fitted activation curve of enough size with the parental cells flat; inconclusive = any curve in the parental cells; inactive = parental cells flat and receptor cells flat or falling; also: potency is read from the fitted curve at half-maximal effect; % of control where 0% means no effect; weak receptor curves with flat parental cells got no call and are not listed
Target sequence (P16473 whole entry, looked up): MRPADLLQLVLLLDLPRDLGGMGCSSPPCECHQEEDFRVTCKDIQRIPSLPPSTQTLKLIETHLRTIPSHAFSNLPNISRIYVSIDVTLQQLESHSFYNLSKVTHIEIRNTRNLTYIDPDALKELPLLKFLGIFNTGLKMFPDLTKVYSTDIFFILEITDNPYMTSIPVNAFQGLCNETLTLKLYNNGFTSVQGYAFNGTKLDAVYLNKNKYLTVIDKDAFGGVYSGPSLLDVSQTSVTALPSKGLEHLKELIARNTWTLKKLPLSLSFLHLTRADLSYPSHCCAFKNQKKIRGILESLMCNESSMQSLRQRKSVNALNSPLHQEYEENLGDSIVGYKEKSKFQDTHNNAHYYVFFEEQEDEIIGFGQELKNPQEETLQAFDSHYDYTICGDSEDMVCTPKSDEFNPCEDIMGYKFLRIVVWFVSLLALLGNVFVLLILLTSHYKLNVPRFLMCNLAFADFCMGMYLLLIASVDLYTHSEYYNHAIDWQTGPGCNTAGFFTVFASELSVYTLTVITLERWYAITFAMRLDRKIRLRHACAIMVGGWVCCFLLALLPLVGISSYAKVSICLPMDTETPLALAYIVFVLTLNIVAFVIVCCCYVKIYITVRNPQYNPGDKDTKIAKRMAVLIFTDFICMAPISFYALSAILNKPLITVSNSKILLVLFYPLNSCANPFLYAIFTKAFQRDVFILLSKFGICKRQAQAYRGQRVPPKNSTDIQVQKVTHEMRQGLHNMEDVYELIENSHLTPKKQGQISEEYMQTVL
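HEK 293 cells stably expressing TSHR and a modified CNG channel, with CNG-only parental cells as counterscreen, were preloaded 60 min at room temperature with membrane potential dye containing 100 uM RO 20-1724. Compound exposure was 30 min, and depolarization was read as fluorescence at 590 nm.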
AID923: qHTS Assay for Allosteric/Competitive Inhibitors of Caspase-1: Spectroscopic Profiling in AFC Spectral Region; compound fluorescence, AFC spectral region (405/520 nm); almost no hit is shown here; Potency, µM (highest dose often 57.5 µM), without a hit: at the highest dose fluorescence increase, hits mostly activators; 1.1% of 75,000 active; AID 923, 2007; active = well fitted activation curve with a large enough effect; inconclusive = small, poorly fitted or top-dose-only effect;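 also: potency is read from the fitted curve at half-maximal effect; 0% is about no effect; scaled to a free AFC standard on each plate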
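Baseline compound fluorescence (AFC region, 405 nm ex/520 nm em) taken from the intercept of kinetic reads with 50 nM caspase-1 and 5 uM Ac-WEHD-AFC; normalized to an on-plate AFC standard curve; compounds titrated up to 57 uM.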
A647 fluor: qHTS Assay for Spectroscopic Profiling in A647 Spectral Region. Compound fluorescence, A647 channel (570/671 nm), Tris buffer. max dye-equivalent concentration, M. 59,000 tested, under 10 active; active means above 1 µM dye equivalent; inconclusive means 0.1 to 1 µM; inactive means 0.1 µM or less;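 also: values scaled relative to a standard on each plate; highest value over a series up to 38 µM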
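Buffer was dispensed, compounds and Alexa 647 standards were pin-transferred, and plates sat 15 min at room temperature. Intensity at 570/671 nm was then converted to dye-equivalent concentration using the plate's A647 standard curve.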
A488 fluor: qHTS Assay for Spectroscopic Profiling in A488 Spectral Region; compound autofluorescence, A488 spectral region, dye equivalency; active compounds read high; 0.1% of 59,000 active; AID 591, 2007; max dye equivalency, M; active = above 10 nM dye equivalent; inconclusive = 1 to 10 nM; inactive = 1 nM or less; about half of its hits are not listed in these tables;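 also: highest value over a series up to 38 µM; compound alone in buffer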
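Readout is A488 dye-equivalent concentration, calibrated by a per-plate six-point Alexa 488 series. Compounds in 100 mM Tris buffer pH 8.0 were incubated 15 min at room temperature. Plates were imaged using 480 nm excitation/540 nm emission filters.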
Resorufin fluor: qHTS Assay for Spectroscopic Profiling in Resorufin Spectral Region | max dye-equivalent concentration, M | 0.04% of 59,000 active | Compound fluorescence, resorufin region 547/598 nm, buffer; active compounds read high | AID 588, 2007; active = above 10 nM dye equivalent; inconclusive = 1 to 10 nM; inactive = 1 nM or less; a few of its hits are not listed in these tables; also: highest value over a series up to 38 µM
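Compounds in 100 mM Tris, pH 8.0, incubated 15 min at room temperature, then fluorescence read at 547 nm excitation/598 nm emission. Signal converted to dye-equivalent concentration via an on-plate six-point resorufin standard curve, per compound concentration.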
The depositor's hits bear a star; i = inactive; ? = inconclusive; . = no result given; [ ] = another dose, or the depositor's remark.

SMILES	TSHR ag	AID923	A647 fluor	A488 fluor	Resorufin fluor
O=C(NCCN1CCOCC1)c1ccc2c(c1)ncn2C1CCCCC1	1.8%	0.1%	1e-09	i	i
Cc1noc(C)c1C(=O)Nc1ccccn1	1.0%	1.8%	3.49e-08	i	i
Cc1c(C(=O)NCC(C)C)sc2nc(-c3ccc(F)cc3)cn12	-3.0%	2.2%	.	.	.
O=C(COC(=O)Cc1ccc(S(=O)(=O)N2CCOCC2)s1)NCc1ccccc1	-1.7%	-0.6%	2.94e-08	i	i
CC(C)(C)NC(=O)NC(=O)COC(=O)C1CC(=O)N(Cc2ccccc2)C1 (centres undefined)	?	-1.4%	4.59e-08	i	i
CC1(C)CC(=O)c2cc(C(=O)N3CCCCC3)c(=O)n(-c3ccc(Cl)cc3)c2C1	3.5%	-2.5%	8.1e-09	i	i
c1ccc([C@H](c2cccc3c2ccc2ccccc23)[C@H](c2ccccc2)c2cccc3c2ccc2ccccc23)cc1	-3.5%[11.4 µM]	-0.5%[11.5 µM]	1e-09	i	i
COc1ccccc1-c1cc(-c2cc(Cl)ccc2O)n[nH]1	.	.	1.34e-08	i	i
CCCCCCOC(=O)C(C#N)c1nc2ccccc2nc1N1CCN(CC)CC1 (centres undefined)	?	5.1%	2.54e-08	i	i
Cc1cc(C)n(C(=O)CNC(=O)Cc2ccccc2)n1	-15.5%	0.5%	1e-09	i	i
O=c1c2c3c(sc2nc2n1CCCCC2)CCCC3	5.5%	-0.6%	.	.	.
O=C(CN1C(=O)c2ccccc2S1(=O)=O)N1CCOCC1	?	-0.7%	3.8e-09	i	i
Cc1cc(C)n(-c2nc3ccccc3nc2N2CCN(S(=O)(=O)c3ccc(F)c(C)c3)CC2)n1	?	3.9%	1e-09	i	i
CCCCSc1nnc(CCCCCNC(=O)OC(C)(C)C)o1	.	2.9%	1e-09	i	i
O=C(Nc1ccc(OC(=O)c2cccs2)cc1)c1ccco1	-2.5%	-0.3%	3.5e-08	i	i
Cc1ccc(C(=O)C2C(c3cccs3)NC(=O)NC2(O)C(F)(F)F)cc1 (centres undefined)	.	.	1e-09	i	i
COc1cccc(C2NC(=O)NC(C)=C2C(=O)Nc2cccc(C)c2C)c1 (centres undefined)	6.4%	-1.7%	2.96e-08	i	i
COc1ccccc1-c1nnc2sc(COc3ccc(F)cc3)nn12	.	-1.0%	3.87e-08	i	i
COCCNC(=O)C(c1cccc(OC)c1)N(C(=O)Cn1nnc2ccccc21)c1cccnc1 (centres undefined)	-3.0%	-2.6%	9e-09	i	i
CCn1c(C(C)NC(=O)Cc2ccccc2)nc2ccccc21 (centres undefined)	-2.9%[11.4 µM]	-0.8%	1.9e-09	i	i
CCN1CCN(c2nc3c(c(=O)[nH]c(=O)n3C)n2CCCSc2ncccn2)CC1	1.1%	-0.2%	2.34e-08	i	i
Cc1ccccc1N1C(=O)CC(N2CCC(C(N)=O)CC2)C1=O (centres undefined)	?	-1.5%	1e-09	i	i
COc1ccc(CNc2nc3c(c(=O)n(Cc4ccc(Br)cc4)c(=O)n3C)n2C)cc1	?	0.1%	1e-09	i	i
O=C(Nc1ccccn1)C(NS(=O)(=O)c1cccc2nsnc12)c1ccccc1 (centres undefined)	6.5%	0.0%	1e-09	i	i
COc1ccc(CNC(=O)COC(=O)c2ccc3c(c2)OCCO3)cc1	6.8%	0.2%	2.53e-08	i	i
CC(C)OCCCNc1ncnc2c1[nH]c1ccccc12	?	3.8%	2.92e-08	i	i
COc1ccc(O)c(-c2cc(-c3cccs3)[nH]n2)c1	-16.4%	-1.1%	1e-09	i	i
CCC(=O)Nc1cccc(NC(=O)c2cc3ccccc3o2)c1	13.9%	-2.4%	.	.	.
CCc1nc2scc(-c3ccccc3)c2c(=O)n1N	5.8%	0.1%	2.06e-08	i	i
O=C1C(=O)N(CCO)C(c2cccc(F)c2)/C1=C(\O)c1ccc(Cl)cc1 (centres undefined)	1.2%[11.4 µM]	-2.9%	1.14e-08	i	i
O=C(CSc1nc2ccccc2c(=O)n1Cc1ccco1)c1ccccc1	?	1.7%	1.11e-08	i	i
O=C(O)CC1SC(=O)N(Cc2ccccc2)C1=O (centres undefined)	7.4%	-0.9%	2e-09	i	i
NCC(=O)N[C@H](CO)C(=O)O	9.5%[11.4 µM]	-1.7%[11.5 µM]	3.9e-09	i	i
CCCCC(=O)Nc1ccc(C(=O)N2CCN(C)CC2)cc1	11.4%	-1.7%	7.68e-08	i	i
Cc1cccc(N2CCN(C(=O)c3ccncc3)CC2C)c1 (centres undefined)	-1.7%	-1.6%	1.08e-08	i	i
O=C(c1noc2c1CCCC2)N1CCCCC1	0.4%	0.2%	5.1e-09	i	i
C#CCCCO/N=C1/C[C@@H](O)[C@@H](O)[C@@H]2[C@@H]3C(=O)N([C@@H](C)c4ccccc4)C(=O)[C@H]3CC[C@H]12	2.7%[11.4 µM]	1.7%[11.5 µM]	.	.	.
Cc1cc(NC(=O)CSc2nc3cc4c(cc3c(=O)n2CCc2ccccc2)OCO4)no1	22.5%	-0.7%	3.1e-09	i	i
Cc1ccc2c(CC(=O)N3CCc4ccccc43)coc2c1	?	0.5%	1e-09	i	i
CC1=NN(c2ccccc2)C(=O)[C@@H]1N=Nc1ccc(S(N)(=O)=O)cc1	-21.6%[11.4 µM]	-0.8%[11.5 µM]	3.69e-08	i	i
Cn1c(SCC(=O)N2CCCc3ccccc32)nnc1-c1cccs1	?	-2.1%	2.1e-09	i	i
COC(=O)C1=C(C)N=C2SCCC(=O)N2C1c1cccs1 (centres undefined)	1.4%	3.0%	.	.	.
Cc1nnc(NC(=O)C2CCCCC2)s1	0.7%	0.9%	.	.	.
Cc1ccc(NC(=O)COC(=O)c2ccnn2C)cc1	-0.9%	1.7%	4.74e-08	i	i
CCCNS(=O)(=O)c1ccc(CCC(=O)Nc2ccc3c(c2)OCO3)cc1	1.2%	1.2%	1.46e-08	i	i
NC12CC3CC(C1)CC(CO)(C3)O2	0.0%	-1.3%	3.6e-09	i	i
O=C(CSCC(=O)N1CCOCC1)Nc1ccccc1	-1.7%	0.9%	.	.	.
CCOC(=O)C1CCN(S(=O)(=O)c2ccc(Br)c(OCC)c2)CC1	12.1%	-0.9%	2.51e-08	i	i
CCSc1nc(C)c(CC)c(C)c1C(N)=O	5.9%	0.2%	2.46e-08	i	i
Oc1c(Cl)cc(Cl)c2c1NCCC2	-10.8%	0.9%	1e-09	i	i
CC1(C)Cn2c(nnc2-c2ccccc2)S1	-1.1%	-0.7%	3.4e-08	i	i
CCn1c(SCC(=O)Nc2nc3ccc(OC)cc3s2)nc2c1c(=O)n(C)c(=O)n2C	27.0%	-0.6%	1e-09	i	i
Clc1cccc(CSc2nnc(-c3cccnc3)n2Cc2ccco2)c1	?	-0.6%	3.51e-08	i	i
CCCC(=O)Nc1cccn(Cc2ccccc2Br)c1=O	?	-2.9%	4.5e-09	i	i
CCC1Oc2ccccc2N(CC(=O)NCCCN2CCOCC2)C1=O (centres undefined)	1.4%	1.6%	.	.	.
Cc1cccc(C)c1OCC(=O)Nc1ncn[nH]1	0.8%	-0.1%	5.25e-08	i	i
O=C(CS(=O)CC(=O)Nc1ccc(Cl)cc1)NCC1OCCc2ccccc21 (centres undefined)	3.3%	0.1%	1e-09	i	i
CCOC(=O)CC(=O)CSc1nc(C)cc(-c2cccnc2)c1C#N	5.0%	2.2%	1.2e-08	i	i
Nc1ncnc2c1ncn2CCN1CCCCC1	2.5%	-0.9%	1.46e-08	i	i
CC(=O)Nc1ccc(OC/C=C(\C)Cl)cc1	1.8%	-2.0%	.	.	.

Random excerpt: 2 records from the list, in no set order.
SMILES	TSHR ag	AID923	A647 fluor	A488 fluor	Resorufin fluor
CC1(C)Cn2c(nnc2-c2ccccc2)S1	-1.1%	-0.7%	3.4e-08	i	i
CC(=O)Nc1ccc(OC/C=C(\C)Cl)cc1	1.8%	-2.0%	.	.	.

Later entries:
SMILES	TSHR ag	AID923	A647 fluor	A488 fluor	Resorufin fluor
CN(C)C(=O)c1ccc(-c2cncnc2NCc2cccs2)cc1	5.0%	-1.3%	1e-09	i	i
CCCS(=O)(=O)N1CCCC(C(=O)NCCN(Cc2ccccc2)C(C)C)C1 (centres undefined)	3.1%	1.2%	6.5e-09	i	i
N=c1nc(N)nc(N)n1-c1ccc(S(N)(=O)=O)cc1	23.8%[11.4 µM]	2.0%[11.5 µM]	5.2e-09	i	i
Cn1c(CCN2CCCCC2)nc2cc(NC(=O)C3CCCCC3)ccc21	2.8%	2.4%	1e-09	i	i
CC1C=CCCOC1c1ccccc1 (centres undefined)	-6.2%[11.4 µM]	-0.2%[11.5 µM]	.	.	.
CC(NC(=O)Nc1cccnc1)(C(F)(F)F)C(F)(F)F	.	.	1.1e-09	i	i
COc1ccc2c(c1)c(C(=O)CN1CCC3(CC1)OCCO3)c(C)n2C	9.0%	2.2%	1.8e-09	i	i
CCOC(=O)c1cccc(NC(=O)N[C@@H](C)C(=O)OC)c1	-2.7%	-1.3%	3.92e-08	i	i
CCOCCCNCC(=O)Nc1ccc(OC(F)(F)F)cc1	-1.2%	1.5%	1.77e-08	i	i
Nc1ccccc1SCc1cn2ccccc2n1	1.9%	0.2%	2.34e-08	i	i
COC(=O)CCS(=O)(=O)c1cc(Cl)ccc1Cl	15.1%	-1.3%	.	.	.
COc1cc2[nH]c3c(N4CCN(c5ccc(Cl)cc5)CC4)ncnc3c2cc1OC	?	0.0%	1.35e-08	i	i
Cc1cc(C)c2oc(=O)cc(CN3CCOCC3)c2c1	13.2%	-1.0%	8.9e-09	i	i
Cc1ccc2c(C)nc(NC3=NCN(C(C)C)CN3)nc2c1	4.2%	-1.0%	1e-09	i	i
Cc1cccc(C)c1NC(=O)COC(=O)c1nonc1N	0.1%	0.7%	1e-09	i	i
COc1ccc(NC2c3ncccc3C(=O)N2Cc2ccccc2)c(OC)c1 (centres undefined)	-5.1%	-0.7%	4.5e-09	i	i
CCOc1ccccc1C(=O)N(C)Cc1cc2ccccc2[nH]c1=O	5.2%[11.4 µM]	0.4%	1.7e-09	i	i
c1ccc(-c2nnn(CCN3CCCCC3)n2)cc1	1.4%[11.4 µM]	-0.3%[11.5 µM]	2.44e-08	i	i
CC(=O)NCCOc1ccc2oc3ccccc3c2c1	0.9%	-2.2%	1e-09	i	i
Oc1ccc(C=Nc2ccc3ncccc3c2)c(O)c1	.	.	2.4e-09	i	i
Clc1ccc(CSc2nnc(Cn3cnc4ccccc43)o2)cc1	?	1.0%	1e-09	i	i
Cc1ccc(-c2noc(CCC(=O)Nc3cccc(C#N)c3)n2)cc1	.	-1.4%	1e-09	i	i
CC(=O)O[C@]12CC[N@+]3(C)CCCC[C@@H]3[C-]1Nc1ccccc12	0.9%[11.4 µM]	2.2%[11.5 µM]	4.88e-08	i	i
CC(=O)N[C@@H]1CONC1=O	1.7%[11.4 µM]	1.3%[11.5 µM]	4.64e-08	i	i
CN(CC(=O)O)CC(=O)O	0.8%[11.4 µM]	4.7%[11.5 µM]	2.77e-08	i	i
FC(F)(F)c1ccc(Sc2nnc(-c3cccs3)n2CC2CCCO2)nc1 (centres undefined)	1.7%	0.8%	1.51e-08	i	i

Ordered by value in A647 fluor (smallest number first): 5 from the list above.
Structure,A647 fluor
Clc1ccc(CSc2nnc(Cn3cnc4ccccc43)o2)cc1,1e-09
CCOc1ccccc1C(=O)N(C)Cc1cc2ccccc2[nH]c1=O,1.7e-09
Cc1cc(C)c2oc(=O)cc(CN3CCOCC3)c2c1,8.9e-09
c1ccc(-c2nnn(CCN3CCCCC3)n2)cc1,2.44e-08
CC(=O)O[C@]12CC[N@+]3(C)CCCC[C@@H]3[C-]1Nc1ccccc12,4.88e-08

From PubChem BioAssay

Not all compounds are listed (hit frequency here may not be typical).
